# Assay outcomes as filed in PubChem BioAssay.
# Ecoli rRNA inh = inhibits bacterial ribosomal RNA function over humanized ribosomes; 1.6% of 350,000 active; AID 720706; GFP signal change (wild-type ribosome), % (concentration not given with the values); E. coli WT GFP vs humanized-ribosome RFP mutants, fluorescence, 24 h; stronger effect = lower value; DMSO median 0, no signal -100;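 active means significant combined selectivity score with lowered wild-type GFP, culture density cut under 30%, mutant RFP and density less affected; inactive means any of these conditions unmet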; further: one replicate is shown; some compounds called inactive have numbers as strong as hits
# AF4-AF9 inh = blocks AF4 peptide binding to human AF9 | inhibition, % at 10 µM | 0.47% of 350,000 active | AlphaScreen, biotin-AF4 peptide binding to FLAG-AF9 | P42568 | AID 651704;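 active means every replicate reaching a set inhibition limit, whatever the replicate mean, cut at about 25% in these data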;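 further: 0% = plate neutral control median and 100% = total signal loss; the record names both 10 and 1 µM as test concentration; the first replicate is given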
# Target sequence (P42568 whole entry, looked up): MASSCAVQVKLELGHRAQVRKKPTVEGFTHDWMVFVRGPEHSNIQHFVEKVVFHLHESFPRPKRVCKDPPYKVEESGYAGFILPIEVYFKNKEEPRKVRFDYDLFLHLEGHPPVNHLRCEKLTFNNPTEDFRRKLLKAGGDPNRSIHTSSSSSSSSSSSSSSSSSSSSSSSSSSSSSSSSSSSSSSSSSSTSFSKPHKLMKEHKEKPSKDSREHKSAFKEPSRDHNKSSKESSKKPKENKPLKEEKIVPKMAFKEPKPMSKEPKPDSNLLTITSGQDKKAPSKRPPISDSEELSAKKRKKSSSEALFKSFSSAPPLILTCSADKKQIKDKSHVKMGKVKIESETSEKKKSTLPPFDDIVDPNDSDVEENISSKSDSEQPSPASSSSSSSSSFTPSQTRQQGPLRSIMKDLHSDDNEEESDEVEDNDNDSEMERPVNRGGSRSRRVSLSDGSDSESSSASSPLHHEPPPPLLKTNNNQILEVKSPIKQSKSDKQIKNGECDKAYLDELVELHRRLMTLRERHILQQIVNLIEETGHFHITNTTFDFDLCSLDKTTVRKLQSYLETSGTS
# FGF22 binding = FGF22 (human) thermal shift binding; Q9HCT0; recombinant FGF22 thermal shift, SYPRO orange fluorescence; percent of sucrose octasulfate shift, DMSO zero; calls only at 9.99 µM; 1.5% of 340,000 active;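 active means melting point raised past a set limit in the mean and every replicate; three in four hits are not shown here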
# Target sequence (Q9HCT0 whole entry, looked up): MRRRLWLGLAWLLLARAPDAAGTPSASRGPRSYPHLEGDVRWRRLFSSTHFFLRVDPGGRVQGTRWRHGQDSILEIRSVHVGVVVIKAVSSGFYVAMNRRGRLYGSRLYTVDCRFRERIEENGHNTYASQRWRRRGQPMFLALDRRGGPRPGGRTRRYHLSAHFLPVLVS
# Ecoli rRNA inh OD600 = also measured in Ecoli rRNA inh; calls as there; OD600 change, %; measured here: OD600 growth;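 optical density of the mix in the first replicate; 0 = DMSO median and -100 = no signal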
# Ecoli rRNA inh RFP = recorded beside Ecoli rRNA inh, whose call it bears; RFP signal change, %; measured here: RFP humanized mutant strains;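 first replicate; 0 = DMSO median and -100 = no signal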
# The depositor's hits bear a star; i = inactive; nt = not tested or not shown; & = joins results of further samples. Only part of the results is shown. The share of hits here may be higher or lower than overall.
smiles	Ecoli rRNA inh	Ecoli rRNA inh OD600	Ecoli rRNA inh RFP	AF4-AF9 inh	FGF22 binding
C[C@H](CO)N1C[C@H](C)[C@@H](CN(C)C(=O)c2ccccc2F)Oc2cc(C#CCN(C)C)ccc2S1(=O)=O	-2	0	0.3	2.4	i
C[C@H](CO)N1C[C@H](C)[C@H](CN(C)S(=O)(=O)c2ccccc2F)Oc2ncc(C#Cc3ccncc3)cc2C1=O	2	4	-5.5	-5.7	i
COCC(=O)N(C)C[C@@H]1Oc2cc(Br)ccc2S(=O)(=O)N([C@@H](C)CO)C[C@H]1C	1	4	-2.8	-3.2	i
CC(C)NC(=O)N[C@H]1CC[C@@H](CCNC(=O)C2CCOCC2)O[C@@H]1CO	3	1	-0.1	-2.8	i
CCCCCNC(=O)C1C(=O)Nc2ccccc2C(=O)N1c1ccc(OC)cc1 (centres undefined)	-3	-2	2.4	-0.2	i
O=C(NCC(F)(F)F)c1cc2c(c(-c3cccc(-c4ccccc4F)c3)n1)[C@H](CCO)N(C(=O)CC1CC1)C2	12	6	3.0	-0.2	i
CC(C)NC(=O)Nc1ccc2c(c1)C(=O)N([C@H](C)CO)C[C@@H](C)[C@@H](CN(C)Cc1ccccc1)OCCCC[C@H](C)O2	-8	-5	-0.5	-4.2	i
CC(=O)NC(c1cccc(F)c1)c1nc(/C=C/c2ccccc2)cs1 (centres undefined)	-6	-45	14	3.5	i
COc1ccc(C(CC(=O)c2ccc3c(c2)OCO3)C(=O)O)cc1OC (centres undefined)	21	15	0.5	2.5	i
CC(C)NC(=O)N(C)C[C@H]1Oc2ccc(NC(=O)CCN3CCOCC3)cc2C(=O)N([C@@H](C)CO)C[C@@H]1C	8	6	0.8	1.3	i
C[C@H]1CCCCO[C@H](CN(C)C(=O)NC2CCCCC2)[C@@H](C)CN([C@@H](C)CO)C(=O)c2cc(NC(=O)Nc3ccc4c(c3)OCO4)ccc2O1	0	-8	-2.6	8.0	i
COCC(=O)N1CCCCN2[C@@H](CO)[C@H](c3ccc(C#Cc4ccc(OC)cc4)cc3)[C@@H]2C1	1	-19	11	3.7	i

# In a second layout: 2 of the compounds above
C[C@H]1CCCCO[C@H](CN(C)C(=O)NC2CCCCC2)[C@@H](C)CN([C@@H](C)CO)C(=O)c2cc(NC(=O)Nc3ccc4c(c3)OCO4)ccc2O1
- Ecoli rRNA inh = 0
- Ecoli rRNA inh OD600 = -8
- Ecoli rRNA inh RFP = -2.6
- AF4-AF9 inh = 8.0
- FGF22 binding = i
COCC(=O)N1CCCCN2[C@@H](CO)[C@H](c3ccc(C#Cc4ccc(OC)cc4)cc3)[C@@H]2C1
- Ecoli rRNA inh = 1
- Ecoli rRNA inh OD600 = -19
- Ecoli rRNA inh RFP = 11
- AF4-AF9 inh = 3.7
- FGF22 binding = i

# Continued.
smiles	Ecoli rRNA inh	Ecoli rRNA inh OD600	Ecoli rRNA inh RFP	AF4-AF9 inh	FGF22 binding
O=C(NCC1CC1)[C@H]1[C@H](CO)[C@H]2Cn3c(cccc3=O)[C@H]2N1Cc1cncnc1	2	4	-0.4	-0.4	i
O=C(C[C@@H]1CC[C@H]2[C@@H](COC[C@@H](O)CN2Cc2cc(F)cc(F)c2)O1)NC1CCCC1	-2	-11	2.1	-1.1	i
Cn1cnc(S(=O)(=O)N2CCCCN3[C@H](C2)[C@H](c2ccc(C#CC4CCCC4)cc2)[C@@H]3CO)c1	1	25	-6.6	-9.4	i
CN(C)C(=O)c1cccc(-c2cnc3c(NC=O)cc(-c4ccccc4N(C)C)cn23)c1	88	3	7.6	3.7	i
Cc1ccc(S(=O)(=O)N[C@H]2CC[C@H](CC(=O)O)O[C@H]2CO)cc1	-2	-1	-0.7	-2.2	i
COc1ccccc1S(=O)(=O)N[C@H]1CC[C@H](CC(=O)N2CCOCC2)O[C@@H]1CO	2	6	-0.7	-0.6	i
COc1ccc2c3c([nH]c2c1)[C@H](CO)N(C(=O)c1cccnc1)CC31CCN(Cc2ccccc2)CC1	3	14	1.3	0.0	i
COc1ccc(S(=O)(=O)N[C@H]2CC[C@H](CC(=O)N3CCC(Cc4ccccc4)CC3)O[C@H]2CO)cc1	-1	-34	30	1.5	i
Cc1ccc(S(=O)(=O)Nc2ccc3c(c2)C(=O)N([C@@H](C)CO)C[C@@H](C)[C@H](CN(C)S(=O)(=O)c2ccc(Cl)cc2)O3)cc1	0	-8	0.0	-4.0	i
C/C=C/c1ccc([C@@H]2[C@@H](CO)N3CCCCN(S(=O)(=O)c4ccc(OC)cc4)C[C@@H]23)cc1	-7	-30	1.0	3.3	i
O=C(Nc1ccc2c(c1)OCO2)N[C@H]1CC[C@H](CCNC(=O)C2CCCCC2)O[C@@H]1CO	3	-2	-1.7	1.2	i
COc1cccc(-c2ccc3c(c2)[C@@H]2[C@@H](CCN2C(=O)NC2CCCC2)[C@H](CO)N3C)c1	-6	-31	8.1	26*	i

# Whole records as entered above. Order of values: Ecoli rRNA inh, Ecoli rRNA inh OD600, Ecoli rRNA inh RFP, AF4-AF9 inh, FGF22 binding
# O=C(C[C@@H]1CC[C@H]2[C@@H](COC[C@@H](O)CN2Cc2cc(F)cc(F)c2)O1)NC1CCCC1 in the list: -2, -11, 2.1, -1.1, i
# O=C(NCC1CC1)[C@H]1[C@H](CO)[C@H]2Cn3c(cccc3=O)[C@H]2N1Cc1cncnc1 in the list: 2, 4, -0.4, -0.4, i

# Going on with the list.
smiles	Ecoli rRNA inh	Ecoli rRNA inh OD600	Ecoli rRNA inh RFP	AF4-AF9 inh	FGF22 binding
Cc1ccc(OCC(=O)OCC(=O)NC2CCCCCC2)cc1C	12	13	0.3	-2.9	i
CO[C@H]1CN(C)C(=O)c2ccc(NC(=O)Nc3cc(F)ccc3F)cc2OC[C@@H](C)N(C(=O)c2ccccn2)C[C@H]1C	-2	-6	2.7	-0.1	i
O=C(NC1CCCCC1)C(c1ccccc1F)n1c(=O)c(-c2cc3ccccc3[nH]2)nc2ccccc21 (centres undefined)	12	12	0.3	-41	i
O=C(C[C@@H]1CC[C@H]2[C@@H](COC[C@@H](O)CN2C(=O)Nc2ccc(Cl)cc2)O1)NCC1CC1	-17	-9	-0.6	-0.6	i
C[C@H](CO)N1C[C@H](C)[C@@H](CN(C)S(C)(=O)=O)OCCCC[C@H](C)Oc2ccc(NS(=O)(=O)c3ccc(Cl)cc3)cc2C1=O	-1	-16	-2.5	-4.7	i
COc1cccc(NC(=O)N[C@@H]2C=C[C@@H](CC(=O)NCc3ccncn3)O[C@H]2CO)c1	2	8	0.1	-4.8	i
CS(=O)(=O)N1CCCCN2[C@H](CO)[C@@H](c3ccc(-c4cccc(C#N)c4)cc3)[C@@H]2C1	-4	-4	-0.2	-9.9	i
COCC(=O)Nc1ccc2c(c1)OC[C@@H](C)N(C(=O)c1cnccn1)C[C@@H](C)[C@@H](OC)CN(C)C2=O	0	-1	-3.2	0.7	i
N#C[C@H]1N[C@@H](CO)[C@@H]1c1ccc(-c2cccc(F)c2)cc1	-2	-8	-0.4	-1.7	i
C[C@@H]1CN([C@H](C)CO)C(=O)CCCn2nncc2CO[C@H]1CN(C)Cc1ccc(Cl)c(Cl)c1	4&-7	0&-12	4.6&3.3	-0.1&-0.2	i
COc1ccc(NC(=O)N2C[C@@H](O)COC[C@H]3O[C@H](CC(=O)NCc4ccccc4OC)CC[C@@H]32)cc1	2	1	4.1	-2.1	i
CO[C@@H]1CN(C)C(=O)c2ccc(NC(=O)C3CC3)cc2OC[C@@H](C)N(Cc2cc(F)ccc2F)C[C@H]1C	-6	-10	3.8	5.1	i
Cc1noc(C)c1NC(=O)N(C)C[C@H]1Oc2ccc(NC(=O)Cc3cn(C)c4ccccc34)cc2CC(=O)N([C@H](C)CO)C[C@@H]1C	1	5	-1.5	-1.5	i
C[C@H]1C(C(=O)N(C)C2CCCCC2)=Cc2c(n(-c3ccc(F)cc3)c(=O)n2CCCOc2ccccc2)C=C1c1ccccc1	9	17	7.7	84*	nt
O=C(C[C@@H]1C=C[C@@H](NC(=O)C2CCC2)[C@H](CO)O1)NC1CCC1	0	7	0.6	1.2	i
COc1ccc2c3c(n(C)c2c1)[C@@H](CO)N(C(=O)CN1CCOCC1)CC31CN(C(C)=O)C1	0	7	0.7	0.3	i
COCC#Cc1cnc2c(c1)C(=O)N([C@@H](C)CO)C[C@H](C)[C@@H](CN(C)Cc1ccccc1)O2	1	-7	-2.3	1.9	i
Cc1ccc(S(=O)(=O)Nc2ccc3c(c2)C(=O)N(C)[C@@H]2CC[C@H](CC(=O)O)O[C@@H]2CO3)cc1	1	-1	-1.3	0.1	i
O=S(=O)(c1ccc(F)cc1)N1CCCCN2[C@H](C1)[C@@H](c1ccc(-c3ccccc3)cc1)[C@@H]2CO	4	5	4.5	-9.5	i
CO[C@H]1CN(C)C(=O)c2ccc(NC(C)=O)cc2OC[C@H](C)N(Cc2ccccn2)C[C@H]1C	1	2	-3.1	-0.3	i
C[C@H]1CN([C@@H](C)CO)C(=O)c2cccc(NC(=O)Nc3ccc(F)cc3)c2O[C@H]1CN(C)S(=O)(=O)c1ccccc1	0	-7	1.5	1.1	i
C[C@@H]1CCCCO[C@H](CN(C)C(=O)Nc2ccc(C(F)(F)F)cc2)[C@H](C)CN([C@@H](C)CO)C(=O)c2cc(NS(=O)(=O)c3ccc(Cl)cc3)ccc2O1	2	5	-3.7	-2.9	i
C[C@H]1CN([C@@H](C)CO)C(=O)c2cccc(NC(=O)c3cnccn3)c2O[C@H]1CN(C)C(=O)Nc1ccc(C(F)(F)F)cc1	-4	-3	2.7	-3.9	i
COc1ccc(NC(=O)N(C)C[C@@H]2Oc3ccc(NC(=O)C4CCCCC4)cc3CC(=O)N([C@H](C)CO)C[C@@H]2C)cc1	-2	-2	2.0	-1.7	i
CO[C@H]1CC[C@H]2CCN(C)C(=O)C[C@@H](c3ccccc3)CN(C)C(=O)c3cccc(C#N)c3OC[C@@H]1O2	-2	-6	-1.0	-1.4	i
C[C@@H]1CCCCO[C@H](CN(C)Cc2ccc(C(F)(F)F)cc2)[C@@H](C)CN([C@@H](C)CO)C(=O)c2cc(NS(=O)(=O)c3ccc(Cl)cc3)ccc2O1	-1	-12	12	-1.0	i
C[C@@H]1CCCCO[C@H](CN(C)C(=O)Nc2cccc3ccccc23)[C@H](C)CN([C@H](C)CO)C(=O)c2cc(NS(=O)(=O)c3cccs3)ccc2O1	-1	-1	5.6	2.5	i
CO[C@@H]1CN(C)C(=O)c2ccc(NC(=O)C3CC3)cc2OC[C@H](C)N(C(=O)Cc2ccccn2)C[C@H]1C	5	4	-4.6	-1.4	i
Cc1noc(C)c1S(=O)(=O)Nc1ccc2c(c1)C(=O)N([C@@H](C)CO)C[C@H](C)[C@@H](CN(C)C(=O)Nc1ccc3c(c1)OCO3)OCCCC[C@H](C)O2	-3	-9	-0.9	8.0	i
O=C(Nc1ccccc1F)N1C[C@@H]2[C@H](c3ccccc31)[C@@H](CO)N2C(=O)C1CCCC1	3	-5	1.0	1.2	i
CCOC(=O)C1(C)CCCN(C(=O)c2c(F)cccc2F)C1 (centres undefined)	8	15	3.8	3.5	i
COCC(=O)N(C)C[C@@H]1Oc2cc(C#CCC3CCCC3)ccc2S(=O)(=O)N([C@@H](C)CO)C[C@H]1C	-40	-66	10	9.7	i
C[C@H](CO)N1C[C@H](C)[C@@H](CN(C)C(=O)Nc2ccccc2)Oc2c(NC(=O)c3cnccn3)cccc2C1=O	7	4	-1.5	-2.3	i
O=C(OCc1cn([C@H]2CN(CC3CCCCC3)[C@@H](c3ccccc3)C[C@@H]2O)nn1)c1ccccc1	7	7	-1.6	0.7	i
C[C@@H]1CN([C@H](C)CO)C(=O)c2cccc(NS(=O)(=O)c3ccc(F)cc3)c2O[C@@H]1CN(C)Cc1ccccc1	0	3	0.5	-1.7	i
C[C@@H]1CN([C@H](C)CO)C(=O)Cc2cc(NC(=O)Cn3cnnn3)ccc2O[C@@H]1CN(C)S(=O)(=O)c1ccccc1	4	4	-3.4	-1.7	i
COc1ccc2nc3n(c(=O)c2c1)-c1ncccc1C(=O)NC3Cc1ccccc1 (centres undefined)	3	11	3.3	2.1	i
CC1OC(C(C)(C)C)CC2=C1C(=O)OC(C)(C)O2 (centres undefined)	4	14	-2.1	-2.5	i
O=C(C[C@H]1CC[C@H](NC(=O)CC2CC2)[C@H](CO)O1)NCc1ccc(Cl)cc1	-1	-7	-2.4	-0.5	i
O=[N+]([O-])c1cccc(CON=Cc2ccccc2O)c1	-18	-12	7.4	-2.1	i
O=C(NCc1ccc(F)cc1)[C@H]1[C@H](CO)[C@H]2Cn3c(cccc3=O)[C@H]2N1CC1CC1	3	8	-1.5	2.0	i
C/C=C/c1ccc2c(c1)O[C@H](CN(C)C(=O)Cc1ccccn1)[C@H](C)CN([C@@H](C)CO)S2(=O)=O	-1	8	-2.2	-3.4	i
CC(C)C#Cc1cnc2c(c1)C(=O)N([C@H](C)CO)C[C@@H](C)[C@H](CN(C)Cc1ccc3c(c1)OCO3)O2	3	7	0.0	6.8	i
Cc1ccc(NC(=O)c2cc(S(=O)(=O)N3CCCCC3)c[nH]2)cc1Cl	7	17	1.0	0.5	i
